Source: PubChem
PKD1 kinase inh: inhibitors of human PKD1 kinase, biochemical, fluorescence polarization; 0.056% of 200,000 active; Serine/threonine-protein kinase D1 (Homo sapiens), Q15139; PKD1 kinase fluorescence polarization assay; inhibition, %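 (about 10 µM by stock and volumes)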;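 active = inhibition of 50% or more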;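 also: controls were vehicle for no effect and a reference inhibitor for full effect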
GALR2 agonist: GALR2 receptor agonists, primary screen, cell-based. 0.48% of 140,000 active. activation, %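 (tested at 5 µM)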. Galanin receptor type 2 (Homo sapiens), O43603. AID 803, 2007. GALR2-expressing cells, agonist activation read-out;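 active = above mean plus 3 SD of all compounds, about 5% in these data, not always enough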;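 also: 0% = vehicle buffer wells and 100% = reference agonist at full effect; tested in CHO reporter cells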
Target sequence (O43603 whole entry, looked up): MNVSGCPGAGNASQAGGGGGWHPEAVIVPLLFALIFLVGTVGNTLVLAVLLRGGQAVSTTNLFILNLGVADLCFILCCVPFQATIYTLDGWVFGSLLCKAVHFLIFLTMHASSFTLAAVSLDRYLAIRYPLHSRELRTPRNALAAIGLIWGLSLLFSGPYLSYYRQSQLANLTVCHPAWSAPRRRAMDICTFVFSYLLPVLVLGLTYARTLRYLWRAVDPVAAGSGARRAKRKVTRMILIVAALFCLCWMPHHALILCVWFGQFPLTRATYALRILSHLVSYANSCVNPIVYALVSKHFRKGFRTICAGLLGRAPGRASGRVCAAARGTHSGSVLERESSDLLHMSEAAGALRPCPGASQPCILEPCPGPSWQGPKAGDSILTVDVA
Insulin prom inh: inhibitors of insulin promoter-driven GFP, primary screen, imaging, TRM-6 cells (human fetal islet line), eGFP reporter, cell count; inhibition, % at 2 µM; 0.9% of 130,000 active; reporter expression induced with tamoxifen;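 active = inhibition above the mean plus 3 SD, with well images judged a real hit on visual review, cut at about 60% in these data, passing the limit was not always enough; inconclusive = inhibition over the cutoff but images rejected on review; inactive = inhibition not above the cutoff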
HSV augment: enhancers of HSV replication in host cells, fold increase, host cell viability; HSV replication augmentation in cells; maximum fold increase; 0.005% of 220,000 active;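 active = peak rise of 1.5-fold or more in the series; inconclusive = self-fluorescent or not available for retest; tested in PC3 cells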;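 also: first round at 10 µM; read as green reporter fluorescence; hits show the peak of a series up to 25 µM; 1 = signal of infected wells without compound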
RGS16-Gao HTS: modulators of RGS16 binding to Galphao, primary screen, biochemical, human proteins, multiplexed bead flow cytometry; bead-based flow cytometry RGS16-Galphao binding, fluorescence; actives lie on both sides; binding response (% of control), % at 10 µM; 0.38% of 220,000 active; AID 1441, 2008;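 active = below 25% or above 175%, edge rows of some plates excepted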;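 also: Galphao activated by GDP with aluminum fluoride before binding; 100% = wells without compound and 0% = beads without RGS; some results beyond the cut were filed as inactive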
Insulin prom inh cell count: second read-out of Insulin prom inh, no call of its own (marks repeat the call); normalized cell count, %; measured here: cell count, toxicity; reference of the scale not given here;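 cells exposed to compound for 48 h; stained nuclei by imaging scaled within each plate; lower means fewer cells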
HSV augment primary fold: second read-out of HSV augment, no call of its own (marks repeat the call); fold increase; compound at 10 µM; measured here: primary screen fold increase 10 uM; tested in PC3 cells;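 GFP signal in the first replicate; 1 = infected wells without compound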
Active calls of the source: *; i = inactive; u = inconclusive; x = no result given.

| no. | canonical_smiles | PKD1 kinase inh | GALR2 agonist | Insulin prom inh | Insulin prom inh cell count | HSV augment | HSV augment primary fold | RGS16-Gao HTS |
| --- | --- | --- | --- | --- | --- | --- | --- | --- |
| 1 | Cc1ccc(CN2C(=O)CCC2C(=O)NCCCN2CCOCC2)cc1 (stereo not given) | -7.9 | -1.0 | 15.4 | 103.4 | i | 0.94 | 187.7 |
| 2 | CC(C)(C)[C@H]1C=C(C(=O)NC2CC2)O[C@@H](OCc2ccc(CO)cc2)C1 | -5.6 | x | x | x | i | 1.02 | 107.5 |
| 3 | CCCN1CC=C2C(C#N)=C(N)C(C#N)(C#N)C(c3cc(OC)ccc3OC)C2C1 (stereo not given) | 5.4 | 3.8 | -177.8 | 123.4 | u | x | 98.0 |
| 4 | Nc1sc2c(c1C(=O)NC1CCS(=O)(=O)C1)CCCC2 (stereo not given) | -11.5 | -3.5 | x | x | i | 1.02 | 98.6 |
| 5 | O=c1cc(Nc2ccc3c(c2)OCCO3)[nH]c(=O)n1-c1ccc(Cl)cc1 | -2.1 | -4.2 | 60.0 | 96.5 | i | 0.86 | 102.0 |
| 6 | C=CCc1c(C)nc(C)nc1N/N=C/c1ccc([N+](=O)[O-])cc1 | 1.5 | -1.3 | 37.0 | 143.4 | i | 0.92 | 88.5 |
| 7 | CCC(C(=O)NNC(=O)c1cnccn1)c1ccccc1 (stereo not given) | -4.3 | -1.3 | x | x | i | 0.99 | 100.1 |
| 8 | CC(C)N(Cc1nc(-c2ccccc2)no1)S(=O)(=O)c1ccccc1 | -11.1 | -4.0 | x | x | i | 0.94 | 56.4 |
| 9 | CC(=O)Nc1ccc(C(=O)OCC(=O)Nc2ccc([N+](=O)[O-])cc2C(F)(F)F)cc1 | 0.1 | -0.9 | -26.3 | 143.3 | i | 1 | 111.4 |
| 10 | O=C(CSc1n[nH]c(-c2ccco2)n1)Nc1sc2c(c1C(=O)Nc1ccccc1)CCCC2 | 1.6 | -1.1 | -185.0 | 98.8 | i | 0.93 | 164.5 |
| 11 | CCCCCN(C(=O)NC(=O)Nc1cccc(C)c1C)S(C)(=O)=O | 2.5 | x | x | x | i | 0.98 | 103.0 |
| 12 | CCC(C)N(C(=O)Cn1nnc2ccccc21)C(C(=O)NCc1ccco1)c1cccc(OC)c1 (stereo not given) | -0.7 | -0.1 | 11.1 | 111.8 | i | 0.98 | 104.9 |
| 13 | CCNc1nc(NCC)nc(C(=O)Nc2ccccc2)n1 | -8.8 | -1.1 | -5.6 | 132.3 | i | 0.89 | 102.9 |
| 14 | O=C(Nc1cccc2ncccc12)c1ccc(F)cc1 | -3.1 | -0.1 | x | x | i | 0.92 | 106.3 |
| 15 | Cc1cc(=O)[nH]c(SCC(=O)NC(c2ccccc2)c2ccccc2)n1 | 0.5 | x | x | x | i | 0.83 | 103.5 |
| 16 | Cn1cc(C(c2ccccn2)c2cn(C)c3ccccc23)c2ccccc21 | -17.9 | -2.1 | 21.4 | 83.4 | i | 0.837 | 98.2 |
| 17 | C/C=C(\C)CN1CCN(c2cccc(C)c2C)CC1 | 6.0 | -0.8 | 37.8 | 75.5 | i | 1.05 | 90.4 |
| 18 | O=C(OCCN1C(=O)c2ccccc2C1=O)c1cc2ccccc2o1 | 1.3 | -1.6 | x | x | i | 1.15 | 49.2 |
| 19 | Nc1cccc(Nc2ccccc2)c1 | -3.2 | x | x | x | i | 1.04 | 105.0 |
| 20 | Cc1noc(C)c1COc1cccc(C(=O)NC(C)(C)C)c1 | -14.1 | x | x | x | i | 1.02 | 96.8 |
| 21 | CN(CC(=O)Nc1ccc(N2CCOCC2)cc1)C(=O)C1CCCC1 | -5.1 | x | -20.0 | 130.3 | i | 1 | 110.8 |
| 22 | CCCCCNC(=O)Cc1cc(=O)[nH]c(=O)[nH]1 | -10.8 | 0.2 | x | x | i | 0.96 | 102.4 |
| 23 | CCOC(=O)CSc1nnc(NC(=O)c2cccc(S(=O)(=O)N3CCCCC3)c2)s1 | -1.6 | -3.5 | -487.5 | 37.3 | i | 0.89 | 97.9 |
| 24 | N#CCc1nc(CSc2nc3ccccc3s2)cs1 | -11.1 | -3.5 | 31.0 | 105.2 | i | 1 | 126.0 |
| 25 | O=C(CCc1nc2ccccc2c(=O)[nH]1)OCC(=O)c1cccc(Cl)c1 | -2.2 | -0.3 | -1.6 | 91.3 | i | 1.1 | 98.3 |
| 26 | CC1(C)C(=O)NCCN1C(=O)CSc1nccc(-c2ccc(Br)cc2)n1 | -14.2 | -0.1 | -309.5 | 43.0 | i | 0.89 | 173.9 |
| 27 | CCOC(=O)N1CCN(C(=O)Cc2ccc(C)cc2)CC1 | -12.7 | -1.6 | 45.0 | 100.0 | i | 0.86 | 98.7 |
| 28 | Cc1ccc2cc(C3CC(c4ccco4)=NN3S(=O)(=O)c3ccccc3)c(Cl)nc2c1 (stereo not given) | -3.0 | -1.0 | x | x | i | 1.26 | 97.8 |
| 29 | COc1ccc(/C=N/NS(=O)(=O)c2ccc(F)cc2)cc1COc1cc(F)ccc1[N+](=O)[O-] | 6.8 | x | 22.2 | 144.8 | i | 0.74 | 112.4 |
| 30 | CCCCCCNC(=O)Cc1ccc(Br)cc1 | -5.1 | x | 7.3 | 92.6 | i | 0.99 | 110.8 |

The list continues.
Labels used below: A = PKD1 kinase inh; B = GALR2 agonist; C = Insulin prom inh; D = Insulin prom inh cell count; E = HSV augment; F = HSV augment primary fold; G = RGS16-Gao HTS
31	O=C(NC1CCCCC1)c1cc(C(=O)c2ccccc2Br)c[nH]1
  A = 3.6; B = x; C = -100.0; D = 90.4; E = i; F = 0.92; G = 104.7

32	O=C(NCCSCc1ccccc1)c1cc(S(=O)(=O)N2CCOCC2)ccc1F
  A = 3.0; B = -0.9; C = -7.7; D = 109.2; E = x; F = x; G = 105.2

33	Cc1ccc(-c2cc(=O)c3cc(C)ccc3[nH]2)cc1
  A = 4.4; B = -1.9; C = 33.3; D = 82.5; E = i; F = 1.1; G = 95.5

34	COc1ccc(C(C)(C)C)cc1NC(=O)C1CC=CCC1C(=O)O (stereo not given)
  A = 3.4; B = -0.6; C = 7.1; D = 86.4; E = i; F = 0.8; G = 88.1

35	O=S(=O)(Nc1ccc(N2CCCCC2)cc1)c1cccs1
  A = 6.1; B = 0.3; C = x; D = x; E = i; F = 0.98; G = 98.5

36	CC(=O)N1CCN(Cc2nc(-c3cccc(Cl)c3)no2)CC1
  A = 2.5; B = x; C = x; D = x; E = i; F = 1.05; G = 105.3

37	O=C(c1ccc(S(=O)(=O)NCc2ccco2)cc1)N1CCN(Cc2ccccc2)CC1
  A = 2.2; B = x; C = x; D = x; E = i; F = 0.88; G = 91.7

38	COCCN1C(=O)c2ccc(C(=O)Nc3nccs3)cc2C1=O
  A = -5.7; B = -3.7; C = -93.8; D = 106.2; E = i; F = 0.97; G = 94.2

39	C[C@@H]1NC(=O)[C@H](CCC(N)=O)NC(=O)c2cc([N+](=O)[O-])cc(I)c2NCCC[C@@H](C(N)=O)NC1=O
  A = -9.2; B = -0.2; C = 20.0; D = 107.1; E = i; F = 0.91; G = 99.5

40	CCCCN(C(=O)c1ccc(Cl)c([N+](=O)[O-])c1)c1c(N)n(CCC)c(=O)[nH]c1=O
  A = -0.6; B = x; C = 21.4; D = 100.7; E = x; F = x; G = 109.9

Part of the list above, with values under each structure:
Fields: PKD1 kinase inh, GALR2 agonist, Insulin prom inh, Insulin prom inh cell count, HSV augment, HSV augment primary fold, RGS16-Gao HTS
1. Cc1ccc(CN2C(=O)CCC2C(=O)NCCCN2CCOCC2)cc1 (stereo not given)
 : -7.9, -1.0, 15.4, 103.4, i, 0.94, 187.7
2. CC(C)(C)[C@H]1C=C(C(=O)NC2CC2)O[C@@H](OCc2ccc(CO)cc2)C1
 : -5.6, x, x, x, i, 1.02, 107.5
3. CCCN1CC=C2C(C#N)=C(N)C(C#N)(C#N)C(c3cc(OC)ccc3OC)C2C1 (stereo not given)
 : 5.4, 3.8, -177.8, 123.4, u, x, 98.0
4. Nc1sc2c(c1C(=O)NC1CCS(=O)(=O)C1)CCCC2 (stereo not given)
 : -11.5, -3.5, x, x, i, 1.02, 98.6
5. O=c1cc(Nc2ccc3c(c2)OCCO3)[nH]c(=O)n1-c1ccc(Cl)cc1
 : -2.1, -4.2, 60.0, 96.5, i, 0.86, 102.0
6. C=CCc1c(C)nc(C)nc1N/N=C/c1ccc([N+](=O)[O-])cc1
 : 1.5, -1.3, 37.0, 143.4, i, 0.92, 88.5
7. CCC(C(=O)NNC(=O)c1cnccn1)c1ccccc1 (stereo not given)
 : -4.3, -1.3, x, x, i, 0.99, 100.1
8. CC(C)N(Cc1nc(-c2ccccc2)no1)S(=O)(=O)c1ccccc1
 : -11.1, -4.0, x, x, i, 0.94, 56.4
9. CC(=O)Nc1ccc(C(=O)OCC(=O)Nc2ccc([N+](=O)[O-])cc2C(F)(F)F)cc1
 : 0.1, -0.9, -26.3, 143.3, i, 1, 111.4
10. O=C(CSc1n[nH]c(-c2ccco2)n1)Nc1sc2c(c1C(=O)Nc1ccccc1)CCCC2
 : 1.6, -1.1, -185.0, 98.8, i, 0.93, 164.5
11. CCCCCN(C(=O)NC(=O)Nc1cccc(C)c1C)S(C)(=O)=O
 : 2.5, x, x, x, i, 0.98, 103.0
12. CCC(C)N(C(=O)Cn1nnc2ccccc21)C(C(=O)NCc1ccco1)c1cccc(OC)c1 (stereo not given)
 : -0.7, -0.1, 11.1, 111.8, i, 0.98, 104.9
13. CCNc1nc(NCC)nc(C(=O)Nc2ccccc2)n1
 : -8.8, -1.1, -5.6, 132.3, i, 0.89, 102.9
